Assay outcomes: PubChem BioAssay, several laboratories
BJeLR lethal: BJeLR cell viability loss; BJeLR (HRASV12) viability, CellTiter-Glo ATP luminescence, 48 h; reference of the scale not given here; inhibition, % (test concentration not listed); 0.17% of 300,000 active;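 active means replicate mean above 50%; inconclusive means above 50% but judged a plate artefact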;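 further: 50 nL library stock added to about 25 µL; numbers are from one replicate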
Bead autofluor: flagged as autofluorescent in microsphere protease counterscreen. compound autofluorescence counterscreen, microsphere flow cytometry; hits give high values. fluorescence intensity (no concentration beside the values). 3.1% of 360,000 active;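 active means at least 3 SD above the mean of all compounds, about 16000 in these data; inconclusive means too few beads counted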;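 further: 100 nL of 1 mM stock went into each well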
Sa ugtP lethal: growth inhibition of S. aureus ugtP deletion strain. S. aureus RN4220 ugtP deletion, OD600 growth, 16 h; some inactives read as strong as hits. growth inhibition, % (concentration not given with the values). 0.54% of 330,000 active;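 active means z-score under -3 and OD600 up to 0.15 on both plates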;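 further: plate controls were untreated wells for no effect and antibiotic for full effect; wells of about 80 µL received 100 nL stock; the first replicate is given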
PrP UTR inh: suppresses PrP 5' UTR mRNA reporter expression; cell-based PrP 5' UTR mRNA reporter, plate reader; inhibition, % (concentration not given with the values); 0.35% of 340,000 active; AID 488862;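 active means every replicate at 50% or more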;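 further: 0 = median of the neutral control wells; tested in H4 reporter cells; numbers are from one replicate; inactives centre near -14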
Mtb hypoxia inh: Mtb hypoxia fluorescent reporter inhibition. 0.1% of 300,000 active. AID 1159583. M. tuberculosis hypoxia-regulated fluorescent reporter, fluorescence. fluorescence inhibition, % (no concentration beside the values);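 active means 35 to 45% if threefold the growth effect, above 45% if 1.5-fold the growth effect; inactive means the rest, general growth blockers included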;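 further: wells of about 50 µL received 100 nL stock; 0% = vehicle wells and 100% = reference inhibitor wells; whole bacteria with a GFP reporter of the hypoxia response; strong numbers were not always called active; many hits fall short of the cut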
RN4220 kill: S. aureus RN4220 growth inhibition; OD600, 16 h; inhibition, % (test concentration not listed); 0.33% of 330,000 active; AID 1259311;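 active means z-score of -3 or lower and OD600 up to 0.18 on both plates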;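 further: plate controls were untreated cells for no effect and reference antibiotic for full effect; stock transfer was 100 nL into about 80 µL; one replicate is shown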
Mtb hypoxia inh growth: recorded beside Mtb hypoxia inh, whose call it bears; growth inhibition, %; measured here: M. tuberculosis growth (absorbance);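 0% = vehicle and 100% = reference antibiotic; read after six days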
Numbers without * were called inactive; ? = inconclusive; . = not tested or not shown.

The line under a structure holds: BJeLR lethal	Bead autofluor	Sa ugtP lethal	PrP UTR inh	Mtb hypoxia inh	Mtb hypoxia inh growth	RN4220 kill
CSc1nc2ccccc2n1CC(=O)Nc1c(C)n(C)n(-c2ccccc2)c1=O
    -6.9	7842	9.4	-9.0	17.4	8.8	5.3
COc1cc(/C=N/NC(=O)C[n+]2ccccc2)cc(OC)c1OC(C)=O
    0.4	4462	.	-7.1	.	.	.
CCOC(=O)/C(C#N)=C/c1c(OCC)n(CC)c2ccccc12
    3.7	2413	-26.3	-20.1	12.7	2.7	-0.9
COc1ccc2nc(Nc3nc(CSc4nc5ccccc5[nH]4)cc(=O)[nH]3)nc(C)c2c1
    8.2	10498	17.5	-6.3	-7.0	12.0	4.6
CC(C)(C)c1n[nH]c2c1CCCC2
    5.5	2424	2.1	-6.4	9.9	7.9	3.7
Cc1cc(C)n2cc(CSc3ccc(Cl)cc3)nc2n1
    -3.0	5230	3.7	-48.4	5.4	16.8	1.7
CCCn1nc(C(=O)NC2CCCCCC2)c2ccccc2c1=O
    .	3697	6.3	15.9	-13.3	2.8	-1.8
CNc1nnc(SCC(=O)N2c3ccccc3NC(=O)CC2C)s1 (configuration not stated)
    .	2907	9.5	-24.8	1.6	2.9	4.0
CCn1c(=O)c2c(nc(SCC(=O)N3CCC(C)CC3)n2C)n(C)c1=O
    -2.7	4164	-2.6	-11.2	7.0	-0.3	0.6
C=CCN1C(=O)CS/C1=N\S(=O)(=O)c1ccc(Cl)cc1
    1.8	2458	.	-15.2	.	.	.
COCCSc1ccccc1C(=O)N1CCCC1
    -4.1	5921	3.3	-7.7	5.6	15.5	-0.2
CN(Cc1nc2ccccc2c(=O)[nH]1)Cc1cc(=O)oc2ccc3ccccc3c12
    8.4	10575	-9.8	-25.0	-0.1	-4.9	-6.0
CCCCn1nnnc1SCC(=O)Nc1ccc2c(c1)OCCO2
    0.2	3679	6.5	-4.5	.	.	1.9
c1ccc(CNCCN2CCNCC2)nc1
    1.2	4266	1.6	-2.3	4.4	0.1	2.0
COc1cc(CN(C)CC2CCCN(CCc3ccc(F)cc3)C2)c(Cl)cc1O (configuration not stated)
    1.7	.	0.7	5.6	9.1	7.0	0.6
CCn1cc(C(=O)N[C@@H](CCSC)C(=O)NCCN2CCOCC2)c(=O)c2cc3c(cc21)OCO3
    -8.1	4271	15.6	-1.7	3.6	-5.5	6.9
CCOC(=O)/C=C1\SCC(=O)N1Cc1ccc(Br)cc1
    -6.4	10972	13.5	-22.4	8.3	8.1	5.9
CC(C)(C)NC(=O)C(c1ccco1)N(Cc1ccc2c(c1)OCO2)C(=O)c1snc(C(N)=O)c1N (configuration not stated)
    -6.0	3574	7.2	-3.6	1.5	6.6	-4.9
O=C1NC(=O)C(=Cc2cccs2)C(=O)N1
    .	?	1.5	-28.3	3.8	2.9	2.4
COc1ccc(N(C(=O)c2ccc(Br)o2)C2C=CS(=O)(=O)C2)c(OC)c1 (configuration not stated)
    1.1	3090	2.8	-12.2	5.2	7.4	3.6

Next part.
The line under a structure holds: BJeLR lethal	Bead autofluor	Sa ugtP lethal	PrP UTR inh	Mtb hypoxia inh	Mtb hypoxia inh growth	RN4220 kill
COc1cccc(C(=O)OCC(=O)Nc2nnc(-c3ccccc3)o2)c1
    -5.9	.	-4.3	-8.2	13.8	4.4	5.1
COc1ccc(NC(=O)c2cc([N+](=O)[O-])nn2Cc2ccccc2)c(C)c1
    7.4	2660	14.5	-35.8	.	.	-0.8
O=C1NC(=Nc2ccccc2)S/C1=C\c1cccnc1
    -2.9	5232	23.8	-13.5	5.4	4.0	10.8
CCCCc1ccc(NC(=O)CSc2nc(=O)n3cc(C)ccc3n2)cc1
    -2.0	4439	4.1	1.8	4.4	-5.4	13.2
CCOCCCN=Cc1c(O)n(Cc2ccccc2)c(=O)[nH]c1=O
    -2.6	2678	-7.3	-16.8	.	.	-1.2
C[C@@H]1CN([C@@H](C)CO)C(=O)c2cccc(NC(=O)Nc3ccc4c(c3)OCO4)c2O[C@H]1CN(C)S(=O)(=O)c1cn(C)cn1
    .	2965	10.2	-6.8	7.4	4.3	-3.5
COc1ccc(-n2c(O)c(/C=N/n3cnnc3)c3ccccc3c2=O)cc1
    7.0	3335	-6.8	-11.9	11.5	9.9	-13.5
CC1(CC(=O)NN=Cc2ccc(-c3ccc(Cl)cc3)o2)OCCO1
    .	.	1.8	.	9.4	7.0	6.2
Cc1ccc(S(=O)(=O)NC(=O)NCc2ccccc2)cc1
    5.7	4521	6.9	-15.3	4.7	-1.3	2.3
O=C(NCN1CCN(c2ccccc2F)CC1)c1cccnc1
    -14.6	9960	-6.1	.	2.6	6.4	4.2
O=C(Nc1ccccc1O)c1cc(S(=O)(=O)N2CCOCC2)ccc1Cl
    -12.2	3687	-3.3	-19.9	.	.	6.0
CN(C(=O)c1ccc2ccccc2c1)c1ccccn1
    -3.4	4360	1.4	-14.6	-6.5	-7.3	2.4
CC(C)(C)N1C(=O)C2C(c3ccc(Br)cc3)N3C(=O)N(c4cccc(F)c4)C(=O)[C@@]3(Cc3ccccc3)C2C1=O (some centres not stated)
    .	.	-30.1	.	-0.6	1.3	0.8
CCN(CC)CC(=O)Nc1sc2c(c1C(=O)c1ccccc1C)CCC2
    3.3	4200	0.0	4.4	6.6	1.5	73.1
CCN1CCN(Cc2ccc(NC(=O)c3ccc(C)c(NC(=O)c4nccn4C)c3)cc2C(F)(F)F)CC1
    4.1	4214	-6.2	12.5	7.4	4.5	3.7
O=C(NC1=NCCS1)c1cc(-c2ccccc2)nn1-c1ccccc1
    3.1	10157	-3.5	-13.9	4.5	6.2	3.5
Cc1ccc(CN2C(=O)CCC2C(=O)NC2CC2)cc1 (configuration not stated)
    -10.4	.	6.2	5.1	2.9	3.4	1.3
Cc1cccc(CN2CCN(Cc3ccco3)CC2)c1
    -2.1	3962	6.9	-18.1	0.3	6.0	2.4
CC1CCN(C(=O)COC(=O)CSc2ccc(C(N)=O)cc2[N+](=O)[O-])CC1
    -1.5	?	-4.1	-10.2	-3.2	10.3	-3.7
O=c1[nH]c(=S)n(Cc2ccco2)c(O)c1C=NCc1cccs1
    11.6	4678	11.7	-6.7	14.6	7.2	3.6

(cont.)
The line under a structure holds: BJeLR lethal	Bead autofluor	Sa ugtP lethal	PrP UTR inh	Mtb hypoxia inh	Mtb hypoxia inh growth	RN4220 kill
CCN(C(=O)c1ccccc1Cl)c1ccccc1
    -8.4	8498	3.6	-28.9	9.7	5.1	2.0
O=C(NC1CCN(C(=S)NCc2ccco2)CC1)C1CCCCC1
    -4.9	7585	16.4	-13.7	11.5	3.3	5.1
CC1(C)CC(=O)C2=C(C1)Nc1cc3c(cc1C2c1ccc(F)cc1)OCO3 (configuration not stated)
    0.2	2314	-0.7	6.2	.	.	-8.4
Cc1ccc2c(C)c(C(=O)NCCc3ccco3)oc2c1C
    -5.0	5769	-7.4	-12.8	13.1	1.5	22.9
NS(=O)(=O)c1ccc(NC(=S)N2CCCC2)cc1
    -13.1	.	8.2	-19.5	-2.4	-4.4	1.4
CN(C)C1=NCCN1CCc1cccc(F)c1
    -23.4	3943	-14.4	0.9	2.4	3.1	-0.3
O=C(COC(=O)/C=C/c1ccco1)NCc1ccccc1
    -14.4	4026	4.2	-28.5	-6.6	0.2	6.2
Cc1ccc(CNC(=O)CCC2CCCN(C(=O)CCC(F)(F)F)C2)o1 (configuration not stated)
    -6.1	2118	-1.3	-44.3	3.0	9.6	1.2
Cc1ccc(C)c(S(=O)(=O)N2CCCOC2CNC(=O)C(=O)NCc2cccnc2)c1 (configuration not stated)
    -2.9	2711	-2.5	-31.1	-5.4	-12.5	2.5
O=C(CN(C(=O)Cn1nnc(-c2ccc(F)cc2)n1)c1ccc(F)cc1)NC1CCCC1
    3.8	3910	0.8	-16.3	20.0	4.1	-2.7
CC(=O)C1=C(O)C(=O)N(c2ccc(Br)cc2)C1c1ccc([N+](=O)[O-])cc1 (configuration not stated)
    2.5	3740	.	-29.8	.	.	.
N#Cc1c(N)nc(SC2CCCCC2=O)c(C#N)c1-c1ccco1 (configuration not stated)
    3.4	2660	-2.2	-2.5	4.5	-12.6	4.2
Oc1ccc(Br)cc1-c1n[nH]c(=S)n1Cc1ccccc1
    -2.9	3363	-2.6	-10.1	2.3	1.3	1.1
CCN(Cc1ccccc1)C(=O)c1ccc(CNS(=O)(=O)c2ccc(C)cc2)cc1
    5.1	9825	1.4	-2.7	8.6	8.7	1.7
CCc1nnc(NC(=O)c2n[nH]c(=O)c3ccccc23)s1
    7.5	5225	10.7	-11.0	-9.0	1.2	3.5
COC(=O)c1cc(S(=O)(=O)NC2CCN(Cc3ccccc3)CC2)cn1C
    3.2	6719	-1.1	-8.6	.	.	2.4
O=C(Nc1ccccn1)c1ccc2c(c1)OCCO2
    17.1	4365	4.3	-36.2	-3.0	3.2	4.1
O=C(Nc1nnc(-c2ccc(F)cc2)o1)c1cccc([N+](=O)[O-])c1
    9.1	2527	.	-9.9	.	.	.
Cc1cccc(C(=O)N/N=C/c2ccncc2)c1
    3.8	16845*	.	-21.0	.	.	.
CCOC(=O)Cc1csc(NC(=O)COc2ccc(N(C)S(=O)(=O)c3ccc(C)cc3)cc2)n1
    -4.9	4203	-3.1	-20.1	0.6	4.7	-1.5

Another view of some results above:
compound | BJeLR lethal | Bead autofluor | Sa ugtP lethal | PrP UTR inh | Mtb hypoxia inh | Mtb hypoxia inh growth | RN4220 kill
CC1(C)CC(=O)C2=C(C1)Nc1cc3c(cc1C2c1ccc(F)cc1)OCO3 (configuration not stated) | 0.2 | 2314 | -0.7 | 6.2 | . | . | -8.4
Cc1ccc(CNC(=O)CCC2CCCN(C(=O)CCC(F)(F)F)C2)o1 (configuration not stated) | -6.1 | 2118 | -1.3 | -44.3 | 3.0 | 9.6 | 1.2
CCN(C(=O)c1ccccc1Cl)c1ccccc1 | -8.4 | 8498 | 3.6 | -28.9 | 9.7 | 5.1 | 2.0

(listing goes on)
The line under a structure holds: BJeLR lethal	Bead autofluor	Sa ugtP lethal	PrP UTR inh	Mtb hypoxia inh	Mtb hypoxia inh growth	RN4220 kill
FC(F)(F)c1ccc(CN2CCCCCC2)cc1
    -11.3	6934	14.3	-16.0	9.5	9.6	8.0
CCOC(=O)c1ccc(N2C(=O)C(c3ccccc3)C2c2ccccc2)cc1 (configuration not stated)
    .	.	-0.9	.	8.3	6.8	-4.8
O=C(CSc1ncccn1)NC(=O)c1ccccc1
    -1.5	4091	4.8	-24.7	15.3	5.7	1.4
CCOc1ccc(Cn2cc(F)c(=O)[nH]c2=O)cc1
    1.7	4039	3.1	-5.3	12.1	5.9	1.9
Cc1ccc(/C(N)=N/OC(=O)CN(C)S(=O)(=O)c2ccc(C)cc2)cc1
    -4.2	6370	2.9	-17.2	1.8	3.4	4.9
CCOC(=O)c1c(C)[nH]c(C(=O)COC(=O)C2CC(=O)N(Cc3ccccc3)C2)c1C (configuration not stated)
    -2.1	4159	-2.4	-18.2	3.5	3.6	-3.3
CC(=NNC(=S)NCCc1ccccc1)c1ccc(Cl)cc1
    .	.	-11.1	.	13.8	6.7	-2.2
Cc1ccc(C(=O)Nc2ccc(Nc3ccccc3)cc2)cc1C
    1.3	5182	6.0	-86.9	3.9	1.6	12.6
Cc1ccc(C(=O)OCc2cc3ccccc3[nH]c2=O)cc1
    1.2	7991	0.5	-5.5	2.5	-0.6	2.4
Nc1nccc(NCCSCc2ccccc2)n1
    .	3513	2.8	0.8	11.8	14.0	1.9

Single entries from the list.
PrP UTR inh result of O=C(CSc1ncccn1)NC(=O)c1ccccc1 : -24.7
PrP UTR inh result of Cc1ccc(C(=O)Nc2ccc(Nc3ccccc3)cc2)cc1C : -86.9

An excerpt from above with just PrP UTR inh and Bead autofluor:
canonical_smiles	PrP UTR inh	Bead autofluor
Nc1nccc(NCCSCc2ccccc2)n1	0.8	3513
Cc1ccc(/C(N)=N/OC(=O)CN(C)S(=O)(=O)c2ccc(C)cc2)cc1	-17.2	6370
O=C(CSc1ncccn1)NC(=O)c1ccccc1	-24.7	4091
